# Sa growth inh: S. aureus growth inhibition at 42 and 30 °C, primary screen, LtaS inhibitor project, RN4220, two temperatures; OD600, 20 h, 42 °C; hits give low values; relative growth, % (concentration not given with the values); actives 0.53% (n = 170,000);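 active means growth at 42 °C up to 50% and 20 or more points under that at 30 °C, or under 10% at both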;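 further: 300 nL library stock went into each well; scaled to the means of positive and negative controls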
# HCMV UL50-53 inh: inhibitors of HCMV UL50-UL53 interaction, biochemical, HTRF. normalized percent inhibition. actives 0.15% (n = 190,000). inhibition, % (test concentration not listed);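 active means both replicates at 50% or more, plus weaker picks with an unusually low signal ratio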;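 further: stock transfer was 100 nL into about 20 µL; 0% = negative control wells and 100% = wells with untagged competitor protein; inactives centre near -12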
# GIV Gai3 FP: inhibitors of GIV peptide binding to Galpha-i3, primary screen, biochemical, fluorescence polarization, FITC-GIV GBA peptide, rat Galphai3; Guanine nucleotide-binding protein G(i) subunit alpha-3 (Rattus norvegicus), P08753; 90 min; hits give low values; scaled: aluminum fluoride 0%, vehicle 100%; percent of control (FP), % (no concentration beside the values); actives 0.42% (n = 210,000); AID 1224905, 2016;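 active means replicate mean at 85% of control or lower, very high polarization wells dropped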;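 further: wells of about 15 µL received 100 nL stock; the first replicate is given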
# Target sequence (P08753 whole entry, looked up): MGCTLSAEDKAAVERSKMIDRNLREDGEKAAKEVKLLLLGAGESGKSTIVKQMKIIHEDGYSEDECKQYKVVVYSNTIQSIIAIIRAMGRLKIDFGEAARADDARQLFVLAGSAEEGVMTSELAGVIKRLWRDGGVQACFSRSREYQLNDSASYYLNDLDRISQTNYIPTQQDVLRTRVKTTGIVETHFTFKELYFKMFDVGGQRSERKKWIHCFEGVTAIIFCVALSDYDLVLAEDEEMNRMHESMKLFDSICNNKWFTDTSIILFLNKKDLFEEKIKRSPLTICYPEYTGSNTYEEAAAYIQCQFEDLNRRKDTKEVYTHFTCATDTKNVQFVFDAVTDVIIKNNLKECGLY
# Sa growth inh second temp: further read-out of Sa growth inh, marked with its call; relative growth, %; measured here: growth at 30 °C;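 optical density after 20 h as mean of two plates; 100% = untreated growth and lower means inhibition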
# Active calls of the source: *; nt = no result given; & = joins results of further samples.
mol,Sa growth inh,Sa growth inh second temp,HCMV UL50-53 inh,GIV Gai3 FP
CCCc1nn(C)c2c(=O)[nH]c(-c3cc(S(=O)(=O)N4CCN(C)CC4)ccc3OCC)nc12,96.4&98.0&114.7,88.0&94.5&94.5,-27.0&-18.9&-22.6&-5.9&-1.6,107.8&103.1&106.7
N#C/C(=C\c1ccc(-c2ccc(S(N)(=O)=O)cc2)o1)S(=O)(=O)c1ccccc1,109.3,86.0,-30.7,97.4
Cc1ccc(C(=O)O)cc1NC(=O)C1Nc2ccccc2S(=O)(=O)N1 (stereo not drawn),nt,nt,-16.9,93.5
CCc1nnc(-c2cc(S(=O)(=O)NCC3CCCO3)c[nH]2)o1 (stereo not drawn),nt,nt,-32.2,98.6
Cc1cc2c(=O)[nH]nc(N)c2c(=O)[nH]1,96.5,92.7,-21.9,104.6
COC(=O)[C@H]1[C@H]2C[C@@H]3c4[nH]c5cc(OC)ccc5c4CCN3C[C@H]2C[C@@H](OC(=O)c2cc(OC)c(OC)c(OC)c2)[C@@H]1OC,94.5,81.9,-35.0&-19.7&5.9&-23.4,121.0
CC(C)CCN(Cc1ccco1)S(=O)(=O)c1ccc(-c2ccc(=O)[nH]n2)s1,86.7,83.6,-68.6,105.3
Cc1ccc(CCNC(=O)c2ccc3c(c2)N(Cc2cccc(Cl)c2)C(=O)c2ccccc2S3(=O)=O)cc1,138.0,95.5,nt,100.2
CCn1c(C(=O)N2CCC(C(=O)N3CCN(c4ccccc4)CC3)CC2)cc2sccc21,90.7,83.8,-20.3,101.5
CNC(=O)C1CCN(c2nc3c(C)cc(C)cc3s2)CC1,110.5,81.7,1.1,98.6
O=C(c1cccs1)N1CCC(n2nc(-c3ccccc3)oc2=O)CC1,112.3,87.5,-8.3,102.4
O=C(NC(=O)c1ccccc1O)c1ccc2c(c1)CCO2,98.7,87.5,24.1,100.9
COc1ccc(/C=C/C(=O)Nc2ccc(N3CCOCC3)cc2)cc1OC,88.6,85.5,-21.6,108.4
CC(C)CN[C@H]1CS(=O)(=O)C[C@@H]1S(=O)(=O)c1cccs1,nt,nt,-0.5,94.6
COc1ccc(-n2nc(C(=O)Nc3cccc(C)n3)c3c4ccccc4n(C)c3c2=O)cc1,112.3,94.2,-18.1,99.5
CCn1c(=N)n(CC(=O)c2cccs2)c2ccccc21,99.7,82.5,-11.8,nt
O=C1OC(c2ccccc2)=N/C1=C\c1ccsc1,104.1,78.3,3.6,100.1
Clc1cccc(CNc2cc(-c3ccccc3)nc3nncn23)c1,120.9,70.3,-1.2,106.0
COc1ccc(-c2[nH]ncc2C=C(C#N)C#N)cc1,97.0,77.4,-34.7,127.5
COc1ccc(OC)c(CNC(=O)C2CCN(S(=O)(=O)c3ccc4[nH]c(=O)oc4c3)CC2)c1,81.2,94.1,nt,105.0
COC(=O)c1ccc(=O)oc1,87.8,92.2,6.9,nt
CSC(=C(C#N)C#N)N1CCCC1,84.4,85.9,-9.1,nt
CC1=CC(=C(C#N)C#N)C=C(c2ccccc2)N1Cc1ccco1,81.3,70.9,-33.7,99.9
O=C(NC1CCNCC1)C1CCCC1,85.6,95.7,-8.7,102.6
O=C(O)CNC(=S)N(Cc1ccccc1)Cc1cccnc1,108.4,79.0,nt,103.7
CCNCc1ccc2c(c1)OCO2,97.2,86.9,-23.6,nt
CCN(CC)c1ccc(NC(=O)CN2C(=O)c3cccnc3Oc3ccc(Cl)cc32)c(C)c1,111.7,84.5,nt,106.3
CC1CCCC(C)N1C(=O)CSCc1cccc(S(=O)(=O)N2CCOCC2)c1 (stereo not drawn),95.0,82.1,-17.7,nt
COc1ccc(OC)c(C2NC(=O)N(C)C(C)=C2C(=O)OCCOc2ccccc2)c1 (stereo not drawn),nt,nt,-13.5,100.2
CN(C)CCNC(=O)CN1C(=O)COc2ccc(S(=O)(=O)N3CCCC3)cc21,104.1,89.2,-5.6,105.8

# Whole records, looked up by structure. Screens in order: Sa growth inh, Sa growth inh second temp, HCMV UL50-53 inh, GIV Gai3 FP
# `Cc1cc2c(=O)[nH]nc(N)c2c(=O)[nH]1` as listed: 96.5, 92.7, -21.9, 104.6
# `CC(C)CCN(Cc1ccco1)S(=O)(=O)c1ccc(-c2ccc(=O)[nH]n2)s1` as listed: 86.7, 83.6, -68.6, 105.3

# Next section
mol,Sa growth inh,Sa growth inh second temp,HCMV UL50-53 inh,GIV Gai3 FP
Nc1nc(CSc2nc3ccccc3o2)cs1,100.9,96.1,-12.9,102.6
Nc1cc(OC(=O)c2ccc(Cl)cc2)nn1S(=O)(=O)c1ccc(F)cc1,nt,nt,-9.8,106.6
C=CCn1c2ccccc2c2nnc(SCC(=O)Nc3c(C)n(C)n(-c4ccccc4)c3=O)nc21,96.1,87.7,-12.5,102.9
OCCNC(=S)c1ccccc1,98.9,92.0,-47.9,103.4
c1ccc2[nH]c(-c3cscn3)nc2c1,98.0,89.9,-23.8&-1.3&-36.0&-46.1,nt
CCCN1CCC(N2CCN(CCO)CC2)CC1,93.2,110.6,3.8,102.5
FC(F)(F)c1nc2ccccc2n1-c1cc(-c2ccccc2)[nH]n1,87.6,61.6,-19.1,nt
Clc1nc(N2CCCc3ccccc32)nc(N2CCCc3ccccc32)n1,70.6,83.3,nt,100.0
CC1CC(C)CN(CCCNC(=O)Cc2c(C(=O)O)n(C)c3ccccc23)C1 (stereo not drawn),114.1,91.2,nt,93.5
O=C(O)COC12CC3CC(CC(C3)C1)C2,96.2,94.0,-4.4,100.0
CC(C)(C)OC(=O)N1CCCC1C(=O)Oc1ccc2c(c1)oc(=O)c1ccccc12 (stereo not drawn),99.0,86.5,-19.4,nt
Cc1cc(C)c(NC(=O)C(=O)NCCc2csc(-c3ccc(F)cc3)n2)c(C)c1,110.9,97.2,nt,101.6
COC(CN(C)C(=O)c1cc2c(C)nc3ccccc3c2o1)OC,101.4,94.6,nt,105.2
COc1ccccc1CNC(=O)CN(C)c1nn2c(=O)cc(C)nc2s1,100.7,82.0,-28.5,105.6
CSc1cc(-c2ccccc2)[nH]c(=O)c1C#N,nt,nt,-29.3,104.3
O=C(O)c1cc(N2CCN(c3ccccc3)CC2)nc2ccc(NS(=O)(=O)c3ccccc3)cc12,nt,nt,-3.6,103.2
CCOC(=O)Cn1c(CN2CCN(c3cccc(Cl)c3)CC2)nc2c1c(=O)[nH]c(=O)n2C,106.0,82.6,4.4,101.8
Cc1c(C2=CCN(S(=O)(=O)c3ccc(Cl)cc3)CC2)c2ccccc2n1CC(=O)N1CCCC1,109.9,91.6,-17.8,108.8
CCN(CC(=O)NCc1cccs1)C(=O)c1cn(-c2ccccc2)nc1-c1cccs1,96.6,99.7,1.2,nt
c1ccc(COc2ccc(NCCc3ccncc3)cc2)cc1,83.5,60.4,1.2,nt
Cc1ccc(N2CC(NC(=O)c3ccc(S(=O)(=O)N4CCCC4)cc3)CC2=O)cc1C (stereo not drawn),126.0,86.5,nt,98.2
CC(OC(=O)/C=C/c1cccs1)C(=O)Nc1cccc(C(F)(F)F)c1 (stereo not drawn),121.7,81.1,-30.3,nt
CC(C)Sc1nnc2sc3ccccc3n12,105.5,95.1,8.6,nt
COCc1cc(C)nc2sc3c(nnn4c5ccccc5nc34)c12,92.0,88.7,5.8,nt
Cc1oc2ncn(CC(C)C)c(=O)c2c1C(=O)N1CCCC1,99.7,103.8,2.4,112.8
O=C(NC1Cc2ccccc2C1)c1ccc(Oc2cc(Cl)cc(Cl)c2)o1,103.0,89.3,-28.8,100.7
Cc1ccc(NC(=O)C(C)n2nnc3sc4c(c3c2=O)CCCC4)cc1Cl (stereo not drawn),89.2,81.9,-20.1,102.1
Cc1ccc(C(=O)N(C)C2CCN(C)CC2)cc1C,86.9,90.9,-11.4,nt
CCN(CC)S(=O)(=O)c1ccc2[nH]c(=O)cc(C(=O)N3CCCSc4ccccc43)c2c1,110.5,80.4,-19.2,nt
Nc1nc(CCC(=O)OCc2c(F)cccc2Cl)nc(Nc2ccccc2)n1,112.1,89.6,13.9,nt
COc1ccccc1C1C=CCC1 (stereo not drawn),88.1,94.8,-11.5,nt
O=C1CCC/C1=C\c1ccccc1,104.8,90.6,-49.1,nt
CCCn1c(N)c(C(=O)COC(=O)c2cccc(NC(=O)OC(C)(C)C)c2)c(=O)[nH]c1=O,93.9,99.3,4.4,nt
CN1C(=O)/C(=C\c2ccccc2)Sc2ccc(C(=O)N3CCN(c4ccccn4)CC3)cc21,97.7,94.6,-9.6,102.7
CCOC(=O)c1cccc(NC(=O)CCSCCc2ccccn2)c1,115.2,83.6,nt,98.3
CC(=O)N(/C=C1\Sc2ccccc2C1=O)c1ccccc1,72.2,74.4,-41.6,232.5
O=C(Nn1c(-c2ccc(Br)cc2)nc2ccccc2c1=O)c1ccc([N+](=O)[O-])cc1,nt,nt,-39.7,101.2
O=C(O)c1cc(NS(=O)(=O)c2cc(F)ccc2F)ccc1N1CCN(c2ccc(F)cc2)CC1,nt,nt,-31.0,104.6
FC(F)(F)c1ccc(NC2=NCCC2)cc1,81.3,88.3,-21.8,nt
COC(=O)c1ccccc1NC(=O)CCCN1C(=O)CSc2ncccc21,107.5,89.3,1.2,106.2
CCCCS(=O)(=O)N1CCN(c2cc(Cl)ccc2C)CC1,98.2,96.7,-3.1,108.7
CC1NC(=S)N(C2CCCCC2)C1=O (stereo not drawn),94.8,86.8,-15.5,99.4
c1ccc(OCc2ccc(CCCN3CCOCC3)cc2)cc1,126.4,95.8,nt,105.4
O=C(NCCSc1c(-c2ccc(Br)cc2)[nH]c2ccccc12)c1ccncc1,104.7,75.0,nt,97.1
Cn1c(=O)c2c(-c3ccccc3Cl)c(NCCc3ccccc3)oc2n(C)c1=O,nt,nt,-24.2,101.3
O=C(NC1CCS(=O)(=O)C1)C(c1ccccc1)c1ccccc1 (stereo not drawn),92.5,101.6,-24.8,108.0
COc1ccc(NC(=O)CN2C(=O)c3ccccc3Sc3ccc(C(=O)N4CCCC4)cc32)c(OC)c1,85.3,68.0,1.3,99.2
COC(=O)c1c(N)n(-c2ccc(F)c(F)c2)c2nc3ccccc3nc12,85.8,94.9,-6.1,nt
CCn1c(=N)n(CCOc2ccc(OC)cc2)c2ccccc21,99.4,79.5,-8.8,111.0
CCOC(=O)c1c(C)c(C(=O)N(C)C2CCCCC2)c(C)n1C,90.9,85.3,-0.6,102.2
COc1ccccc1N1CCN(c2cc(C(=O)O)c3cc(NS(=O)(=O)c4ccc(F)cc4)ccc3n2)CC1,nt,nt,-33.1,97.2
Cc1ncc(CSc2nccc(=O)[nH]2)c(CO)c1O,97.3,85.5,nt,97.8
O=C(/C=C/c1ccc(S(=O)(=O)N2CCCCCC2)cc1)N1CCN(C2CCS(=O)(=O)C2)CC1 (stereo not drawn),94.7,94.3,-31.3,nt
COc1ccccc1CNc1ccccc1C(=O)N1CCOCC1,97.0,99.8,14.8,nt
O[C@H](CSc1ncccn1)C(F)(F)F,nt,nt,-8.2,102.7
CCCN(C(=O)c1cn(CC(C)C)c(=O)c2cc(OC)c(OC)cc12)c1cccc(C)c1,81.9,93.1,16.2,109.8
COC(=O)C1C(=O)NC(SCC(=O)Nc2ccccc2C)=C(C#N)C1c1ccccc1C (stereo not drawn),nt,nt,-22.4,99.7
c1ccc(N2CCN(c3ncnc4nc[nH]c34)CC2)nc1,nt,nt,-4.0,97.1

# Among those listed so far, these contain a thiophene ring, fused or not.
mol,Sa growth inh,Sa growth inh second temp,HCMV UL50-53 inh,GIV Gai3 FP
CC(C)CCN(Cc1ccco1)S(=O)(=O)c1ccc(-c2ccc(=O)[nH]n2)s1,86.7,83.6,-68.6,105.3
CCn1c(C(=O)N2CCC(C(=O)N3CCN(c4ccccc4)CC3)CC2)cc2sccc21,90.7,83.8,-20.3,101.5
O=C(c1cccs1)N1CCC(n2nc(-c3ccccc3)oc2=O)CC1,112.3,87.5,-8.3,102.4
CC(C)CN[C@H]1CS(=O)(=O)C[C@@H]1S(=O)(=O)c1cccs1,nt,nt,-0.5,94.6
CCn1c(=N)n(CC(=O)c2cccs2)c2ccccc21,99.7,82.5,-11.8,nt
O=C1OC(c2ccccc2)=N/C1=C\c1ccsc1,104.1,78.3,3.6,100.1
CCN(CC(=O)NCc1cccs1)C(=O)c1cn(-c2ccccc2)nc1-c1cccs1,96.6,99.7,1.2,nt
CC(OC(=O)/C=C/c1cccs1)C(=O)Nc1cccc(C(F)(F)F)c1 (stereo not drawn),121.7,81.1,-30.3,nt
COCc1cc(C)nc2sc3c(nnn4c5ccccc5nc34)c12,92.0,88.7,5.8,nt
Cc1ccc(NC(=O)C(C)n2nnc3sc4c(c3c2=O)CCCC4)cc1Cl (stereo not drawn),89.2,81.9,-20.1,102.1

# The order is random; overall some 0.8% were active at least once.
